# From PubChem BioAssay
# ID4 SMM = ID4 (human) binding; P47928; small molecule microarray, Flag-ID4 binding, fluorescence F/B; calls only; actives 1.2% (n = 31,000);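 active = spot signal over background at p below 0.07 in all four prints; compounds were printed on slides so no solution concentration is given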;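 also: a binder raises fluorescence above local background on the spot; about 2 pmol printed per array spot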
# Target sequence (P47928 whole entry, looked up): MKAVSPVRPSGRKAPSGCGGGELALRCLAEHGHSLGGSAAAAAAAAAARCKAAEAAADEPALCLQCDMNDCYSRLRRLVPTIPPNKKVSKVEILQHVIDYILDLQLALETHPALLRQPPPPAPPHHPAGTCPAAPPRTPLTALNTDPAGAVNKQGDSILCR
# Calls only; i = inactive; + = active, no number.
canonical_smiles	ID4 SMM
COC(=O)c1c(NC(=O)COc2cc(C)ccc2C)sc2c1CCC2	i
C[C@@H]1CN([C@@H](C)CO)C(=O)c2cc(-c3cccc(F)c3)cnc2O[C@@H]1CN(C)C(=O)C1CCC1	i
COc1ccc(NC(=O)Cn2nnc(-c3ccccc3Cl)n2)c(OC)c1	i
CC(C)CC#Cc1ccc2c(c1)O[C@@H](CN(C)C(=O)NC1CCCC1)[C@H](C)CN([C@@H](C)CO)S2(=O)=O	i
COc1cc2c(cc1OC)CN(C(=O)[C@@H]1[C@H]3C(=O)O[C@H](c4ccccc4)[C@H](c4ccccc4)N3[C@H](c3ccc(OCCO)cc3)[C@@]13C(=O)Nc1ccc(C#CCNC(N)=O)cc13)CC2	i
C[C@@H](O)C#Cc1cnc2c(c1)C(=O)N([C@@H](C)CO)C[C@H](C)[C@@H](CN(C)C(=O)CN1CCOCC1)O2	i
CC(C)NC(=O)N[C@H]1C=C[C@H](CC(=O)NCc2ccc(Oc3ccccc3)cc2)O[C@H]1CO	i
CCn1c(SCC(=O)Nc2cc3oc4ccccc4c3cc2OC)nnc1-c1cccs1	i
CC(C)C#Cc1ccc2c(c1)O[C@@H](CN(C)C(=O)c1ccccn1)[C@H](C)CN([C@H](C)CO)S2(=O)=O	i
O=C(CSc1nc2ccccc2c(=O)[nH]1)Nc1ccc(Cl)cc1Cl	i
COCCNC(=O)c1ccccc1NC(=O)c1ccccc1OC	i
C/C=C/c1cnc2c(c1)C(=O)N([C@H](C)CO)C[C@H](C)[C@@H](CN(C)S(=O)(=O)c1cccs1)O2	i

# Next section; the last 5 above are carried over.
canonical_smiles	ID4 SMM
CCn1c(SCC(=O)Nc2cc3oc4ccccc4c3cc2OC)nnc1-c1cccs1	i
CC(C)C#Cc1ccc2c(c1)O[C@@H](CN(C)C(=O)c1ccccn1)[C@H](C)CN([C@H](C)CO)S2(=O)=O	i
O=C(CSc1nc2ccccc2c(=O)[nH]1)Nc1ccc(Cl)cc1Cl	i
COCCNC(=O)c1ccccc1NC(=O)c1ccccc1OC	i
C/C=C/c1cnc2c(c1)C(=O)N([C@H](C)CO)C[C@H](C)[C@@H](CN(C)S(=O)(=O)c1cccs1)O2	i
C[C@@H]1CN([C@@H](C)CO)C(=O)c2cc(/C=C/c3ccccc3)cnc2O[C@H]1CN(C)Cc1ccccc1	i
C[C@@H]1CN([C@@H](C)CO)C(=O)c2cc(-c3cccc(C#N)c3)cnc2O[C@@H]1CN(C)C	i
COc1cccc(NC(=O)COc2ccccc2C(N)=O)c1	i
C[C@H](CO)N1C[C@H](C)[C@H](CN(C)C)Oc2ncc(-c3cccc(F)c3)cc2C1=O	i
CS(=O)(=O)N1[C@H](C#N)[C@@H](c2ccc(/C=C/c3ccccc3)cc2)[C@H]1CO	i
CN(C)CC(=O)N1[C@H](C#N)[C@@H](c2ccc(-c3ccccc3F)cc2)[C@H]1CO	i
Cc1nn2c(CN(C(=O)c3ccco3)c3ccccc3)nnc2c2ccccc12	i
Cc1nnc(SCC(=O)NC2CCCCCC2)n1-c1ccccc1	i
CC(Oc1ccc(Cl)cc1Cl)C(=O)Nc1cc(C(F)(F)F)ccc1N1CCOCC1 (stereo not drawn)	i
O=C(Nc1cccc(C(F)(F)F)c1)c1cc([N+](=O)[O-])ccc1NCc1cccnc1	i
C[C@@H]1CN([C@@H](C)CO)C(=O)Cc2cc(NC(=O)C3CC3)ccc2O[C@H]1CN(C)CC1CCCCC1	i
COc1cccc(S(=O)(=O)N[C@@H]2CC[C@H](CC(=O)NC3CCC3)O[C@@H]2CO)c1	i
CN(C)C(=O)C[C@@H]1CC[C@H](NC(=O)c2ccc(F)cc2)[C@@H](CO)O1	i
O=C(C[C@@H]1CC[C@H](NS(=O)(=O)c2ccccc2F)[C@H](CO)O1)NCCCN1CCOCC1	i
CCCN(C)C[C@H]1Oc2ncc(C#CC3CC3)cc2C(=O)N([C@@H](C)CO)C[C@@H]1C	i
C[C@H]1CN([C@@H](C)CO)C(=O)c2cc(C#CCC3CCCC3)cnc2O[C@@H]1CN(C)CC1CCOCC1	i
COc1cccc(NC(=O)Cn2cnc3ccccc3c2=O)c1	i
COc1ccc(S(=O)(=O)NCCCN2CCOCC2)c(C)c1C	i
N#C[C@H]1[C@@H](c2ccc(C3=CCCC3)cc2)[C@@H](CO)N1C(=O)c1cccc(F)c1	i
Cc1ccc(S(=O)(=O)NCC(=O)Nc2ccccc2F)cc1	i
O=C(N[C@@H]1CC[C@@H](CC(=O)N2CCOCC2)O[C@@H]1CO)c1cccc(F)c1	i
O=C(C[C@H]1CC[C@@H](NC(=O)c2ccccc2)[C@@H](CO)O1)Nc1ccc(-c2ccccc2)cc1	i
CCCC#Cc1ccc2c(c1)O[C@@H](CN(C)CC1CCOCC1)[C@H](C)CN([C@@H](C)CO)S2(=O)=O	i
COCC#Cc1cnc2c(c1)C(=O)N([C@H](C)CO)C[C@H](C)[C@@H](CN(C)C)O2	i
CCOc1ccc(NC(=O)CN2C(=O)c3ccccc3S2(=O)=O)cc1	i
CCOc1ccccc1NC(=O)CSc1nc2ccccc2c(=O)n1-c1ccc(Cl)cc1	i
Cc1ccc([N+](=O)[O-])cc1N(CC(=O)Nc1cccc(Br)c1)S(C)(=O)=O	i
C=CC(C)(C)c1cc2cc3ccoc3cc2oc1=O	i
O=C(C[C@H]1CC[C@H](NC(=O)c2ccccc2)[C@@H](CO)O1)Nc1ccc(-c2ccccc2)cc1	i
Cc1ccc([N+](=O)[O-])cc1S(=O)(=O)NCCOc1ccccc1Cl	i
Cn1nc(CC(=O)Nc2ccc3c(c2)oc2ccccc23)c2ccccc2c1=O	i
C[C@H]1CN([C@@H](C)CO)C(=O)c2cc(C#CCN(C)C)cnc2O[C@H]1CN(C)C	i
CC(C)(C)c1cc(/C=C(\C#N)C(N)=S)cc(C(C)(C)C)c1O	i
CN(C(=O)CSc1nc(N)c2c3c(sc2n1)CSC(C)(C)C3)c1ccccc1	i
CCn1cc(C(=O)NC(=S)Nc2sc3c(c2C(=O)OC)CCCCCC3)cn1	i
C[C@@H](NC(=O)C[C@@H]1C=C[C@H](NC(=O)C2CC2)[C@@H](CO)O1)c1ccccc1	i
Cc1ccc([N+](=O)[O-])cc1N(CC(=O)Nc1ccc(Cl)c(C(F)(F)F)c1)S(C)(=O)=O	i
CC1(C)CC(=O)c2c(O)cc(OCC(=O)c3cccc([N+](=O)[O-])c3)cc2O1	i
Cc1ccc(C(=O)NCCCNc2ccccc2[N+](=O)[O-])cc1	i
Cc1cc(C)c2nc(-c3ccncc3)cc(C(=O)N3CCN(Cc4ccccc4Cl)CC3)c2c1	i
COc1ccc(-c2noc(CN(C(=O)c3c(-c4ccccc4Cl)noc3C)C(C)C)n2)cc1	i
COCC#Cc1cnc2c(c1)C(=O)N([C@@H](C)CO)C[C@H](C)[C@H](CN(C)C(=O)Nc1ccccc1F)O2	i
Cc1ccc(-n2c(SCC(=O)Nc3c(F)cc(F)cc3Br)nc3ccccc3c2=O)cc1	i
C[C@H](O)C#Cc1ccc2c(c1)O[C@H](CN(C)C)[C@@H](C)CN([C@@H](C)CO)S2(=O)=O	i
Cc1cc(C(=O)CSc2nnc3ccccn23)c(C)n1-c1cc(Cl)ccc1Cl	i
O=C1c2ccccc2C(=O)N1CCc1nc2ccccc2c(=O)n1Cc1ccccc1	i
COC(=O)c1ccccc1NC(=O)COc1cccc(Cl)c1Cl	i
CCC(=O)N[C@@H]1C=C[C@H](CC(=O)OC)O[C@H]1CO	i
C[C@@H]1CN([C@H](C)CO)C(=O)c2cccc(NC(=O)C3CC3)c2O[C@H]1CN(C)CC1CCCCC1	i
CC(Oc1ccc(C(C)(C)C)cc1)c1nc(-c2ccccn2)no1 (stereo not drawn)	i
COC(=O)c1c(NC(=S)Nc2cnccn2)sc2c1CCC(C)C2 (stereo not drawn)	i
Cc1ccc(-c2cnc3c(c2)C(=O)N([C@@H](C)CO)C[C@@H](C)[C@@H](CN(C)C)O3)cc1	i
CC1(C)Cc2nc(-c3ccccc3)nc(SCC(=O)Nc3cccc(C(F)(F)F)c3)c2CO1	i
COc1ccc(C)cc1N(CC(=O)Nc1ccccc1C(=O)O)S(C)(=O)=O	i
COCC(=O)Nc1ccc2c(c1)C(=O)N(C)C[C@@H](OC)[C@H](C)CN[C@H](C)CO2	i
CCCn1nnc(NC(=O)COc2ccc(Cl)c(C)c2)n1	i
COc1ccc(C)cc1S(=O)(=O)N1CCCC(C(=O)Nc2ccccc2C(F)(F)F)C1 (stereo not drawn)	i
Cc1ccc(-c2ccc3c(c2)O[C@@H](CN(C)Cc2cccc(C(=O)O)c2)[C@H](C)CN([C@@H](C)CO)S3(=O)=O)cc1	i
Cc1cc(C)c(S(=O)(=O)N(C)CC(=O)Nc2cc(Cl)ccc2C)c(C)c1	i
C[C@H]1CN([C@@H](C)CO)C(=O)c2cc(/C=C/c3ccccc3)cnc2O[C@@H]1CN(C)Cc1ccccc1	i

# Following part.
canonical_smiles	ID4 SMM
C[C@@H]1CN([C@@H](C)CO)S(=O)(=O)c2ccc(C#Cc3ccccc3)cc2O[C@H]1CN(C)C	i
COc1ccc(OCC(=O)Nc2ccc3oc(-c4ccc(C)c(C)c4)nc3c2)cc1	i
Cc1ccc(-c2cnc3c(c2)C(=O)N([C@H](C)CO)C[C@@H](C)[C@@H](CN(C)C(=O)c2ccccc2)O3)cc1	i
C[C@H]1CN([C@@H](C)CO)S(=O)(=O)c2ccc(-c3ccccc3F)cc2O[C@H]1CN(C)C(=O)C1CC1	i
Cc1ccc(OCC(=O)Nc2ccc3oc(-c4ccccc4C)nc3c2)c(C)c1	i
CC(C)C#Cc1ccc2c(c1)O[C@@H](CN(C)Cc1ccccc1)[C@@H](C)CN([C@@H](C)CO)S2(=O)=O	i
O=[N+]([O-])c1ccc(NCCNS(=O)(=O)c2ccc(Br)cc2)cc1	i
C[C@@H](NC(=O)C[C@H]1C=C[C@@H](NC(=O)C2CCC2)[C@H](CO)O1)c1ccccc1	i
O=C(CNS(=O)(=O)c1ccccc1)Nc1cccc(F)c1	i
O=C(CSC1CC(=O)N(c2ccc(Br)cc2)C1=O)Nc1ccc(Cl)c(Cl)c1 (stereo not drawn)	i
NC(=O)CN(Cc1ccc(Cl)c(Cl)c1)S(=O)(=O)c1ccc(Br)cc1	i
C[C@H](CO)N1C[C@H](C)[C@@H](CN(C)Cc2cccc(F)c2)Oc2ncc(C#CC(C)(C)O)cc2C1=O	i
C[C@@H]1CN([C@H](C)CO)C(=O)Cc2cc(N(C)C)ccc2O[C@H]1CN(C)C(=O)NC1CCCCC1	i
COC(=O)c1ccc(Cl)c(NC(=O)CN2CCOCC2)c1	i
COCC(=O)N(C)C[C@H]1Oc2cc(-c3cncnc3)ccc2S(=O)(=O)N([C@H](C)CO)C[C@@H]1C	i
CCn1c(SCC(=O)Nc2ccc(C)c(C)c2)nnc1-c1ccc(Cl)cc1	i
COc1ccc(CCNC(=O)C(=O)Nc2ccc(C(C)(C)C)cc2)cc1OC	i
CO[C@@H](C(=O)N(C)C[C@H]1OCc2ccccc2-c2ccccc2C(=O)N([C@H](C)CO)C[C@H]1C)c1ccccc1	i
COc1ccc(-c2cc(=O)c3c(O)cc(O[C@@H]4O[C@H](C(=O)O)[C@@H](O)[C@H](O)[C@H]4O)cc3o2)cc1	i
Cc1nc2ccc(F)cc2cc1C(=O)NCc1ccco1	i
Cc1ccc(N2C(=O)c3oc4cc(C)c(C)cc4c(=O)c3C2c2ccc(O)cc2)nc1 (stereo not drawn)	i
O=C(C[C@@H]1CC[C@@H](NC(=O)C2CCC2)[C@H](CO)O1)NC1CCC1	i
COc1ccc(CNC(=O)N(C)C[C@H]2OCc3ccccc3-c3c(n(C)c4ccccc34)C(=O)N([C@@H](C)CO)C[C@@H]2C)cc1	i
C/C=C/c1cnc2c(c1)C(=O)N([C@@H](C)CO)C[C@@H](C)[C@@H](CN(C)Cc1ccc(F)cc1)O2	i
FC(F)(F)Oc1ccc(Nc2n[nH]c(=S)s2)cc1	i
O=C(Nc1ccccc1C(=O)O)c1ccc(Br)c(S(=O)(=O)N2CCOCC2)c1	+
O=C(CCc1nc(-c2ccccc2F)no1)Nc1ccccc1Cl	i
Cc1ccccc1C(=O)Nc1sc2c(c1C(=O)NCc1ccco1)CCCC2	i
Cc1cc([N+](=O)[O-])nn1CC(=O)Nc1ccc(F)cc1	i
O=C(C[C@@H]1CC[C@@H](NC(=O)CC2CC2)[C@@H](CO)O1)NCc1ccc(-c2ccccc2)cc1	i
C[C@@H]1CN([C@H](C)CO)C(=O)c2cc(-c3cccc(F)c3)cnc2O[C@@H]1CN(C)CC1CCOCC1	i
Cc1ccccc1-c1nnc(SCC(=O)Nc2ccc3c(c2)OCCO3)n1C	i
Cc1cc(OCC(=O)Nc2ncn[nH]2)c(C)cc1Br	i
CC(C)C#Cc1ccc2c(c1)O[C@H](CN(C)C)[C@@H](C)CN([C@H](C)CO)S2(=O)=O	i
C[C@@H]1CN([C@@H](C)CO)C(=O)c2cc(-c3ccccc3F)cnc2O[C@H]1CN(C)C(=O)C1CC1	i
COc1ccccc1OCC(=O)Nc1cccc(C(=O)N2CCOCC2)c1	i
COc1ccc2[nH]c3c(OC)ncnc3c2c1	i
O=C(NCc1cccnc1)c1cc2nc(-c3cccs3)cc(C(F)(F)Cl)n2n1	i

# Already shown: an excerpt of the list.
canonical_smiles	ID4 SMM
C[C@@H]1CN([C@@H](C)CO)C(=O)c2cc(-c3ccccc3F)cnc2O[C@H]1CN(C)C(=O)C1CC1	i
COc1ccccc1OCC(=O)Nc1cccc(C(=O)N2CCOCC2)c1	i
COc1ccc2[nH]c3c(OC)ncnc3c2c1	i
O=C(NCc1cccnc1)c1cc2nc(-c3cccs3)cc(C(F)(F)Cl)n2n1	i

# These rows are one share of the data; rates above refer to the full screens.
